Beta2AR agonist: agonists of human beta-2 adrenergic receptor inducing internalization; response, % (test concentration not listed); P07550; Am2.2-beta2AR cells, FAP receptor internalization, flow cytometry; reference of the scale not given here; 0.43% of 340,000 active;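 active = response above a set limit, near 3 SD of response in nonfluorescent compounds, cut at about 42% in these data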;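 note: stock transfer was 100 nL into about 11 µL; a reference agonist was the positive control; negative values mostly stem from fluorescent compounds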
Target sequence (P07550 whole entry, looked up): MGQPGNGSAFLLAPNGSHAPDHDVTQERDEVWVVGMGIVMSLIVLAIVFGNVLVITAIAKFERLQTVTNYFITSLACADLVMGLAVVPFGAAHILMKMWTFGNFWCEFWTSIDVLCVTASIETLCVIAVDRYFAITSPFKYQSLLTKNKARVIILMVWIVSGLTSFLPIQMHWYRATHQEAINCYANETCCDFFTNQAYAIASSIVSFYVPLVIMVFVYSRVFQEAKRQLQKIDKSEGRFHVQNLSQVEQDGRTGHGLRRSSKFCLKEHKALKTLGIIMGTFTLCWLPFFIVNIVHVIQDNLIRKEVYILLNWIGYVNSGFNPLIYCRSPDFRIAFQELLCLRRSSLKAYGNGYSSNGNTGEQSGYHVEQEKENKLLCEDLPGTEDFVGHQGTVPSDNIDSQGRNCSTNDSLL
ALR inh: inhibitors of human sulfhydryl oxidase ALR; 3.8% of 290,000 active; AID 485317; P55789; purified ALR, DTT oxidation, H2O2 HRP-luminol luminescence; inhibition, % (concentration not given with the values);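 active = mean and each replicate at 75% or more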;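 note: stock transfer was 7.5 nL into about 7.5 µL; 0% = neutral wells and 100% = wells with inactivated enzyme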
FGF22 binding: shifts melting point of recombinant human FGF22 | AID 651658 | recombinant FGF22 thermal shift, SYPRO orange fluorescence; percent of sucrose octasulfate shift, DMSO zero | calls only at 9.99 µM | 1.5% of 340,000 active;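 active = melting point raised past a set limit in the mean and every replicate; three in four hits are not shown here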
Target sequence (Q9HCT0 whole entry, looked up): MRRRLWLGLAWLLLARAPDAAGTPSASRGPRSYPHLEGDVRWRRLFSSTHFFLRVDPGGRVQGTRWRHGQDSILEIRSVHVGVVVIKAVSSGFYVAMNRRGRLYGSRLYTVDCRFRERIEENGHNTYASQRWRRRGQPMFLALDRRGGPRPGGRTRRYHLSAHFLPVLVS
LANA-H2B inh: blocks KSHV LANA binding to histone H2A/H2B | Q9QR71 | cell-free LANA-H2A/H2B peptide, fluorescence polarization | inhibition, % (test concentration not listed) | 0.6% of 320,000 active | AID 2629; in the data active = inhibition mostly above about 10%, no sharp cut-off; inactive = mostly below about 6.7%;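 note: stock transfer was 7.5 nL into about 10 µL; 0% = median of vehicle wells and 100% = median of positive control wells; one replicate is shown; the record names a cut of 25% in any replicate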
HNF4A DNA FP: change in binding of human HNF4 alpha to DNA. AID 1224865. HNF4a-FITC DNA binding, fluorescence polarization, 1 h. P41235. activity change, % at 10 µM. 0.3% of 360,000 active; in the data active = activity change above about 30%, passing the limit was not always enough;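 note: controls were the assay level and a saturating level of protein; the project sought stronger binding though the title names inhibitors; some compounds called inactive have numbers as strong as hits; positive values seem to mean higher polarization but the record does not say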
Ecoli growth: inhibitors of Escherichia coli growth; OD600, 23 h; active compounds read low; OD600 absorbance (no concentration beside the values); 0.21% of 330,000 active; AID 1053175;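 active = OD600 absorbance below the run mean of sample wells minus 3.6 SD, in any replicate, cut at about 0.56 in these data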;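 note: stock transfer was 300 nL into about 60 µL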
UCH37 inh: inhibitors of human deubiquitinating enzyme UCH37. AID 588478. purified proteasome/UCH37, Ub-AMC cleavage fluorescence. inhibition, % (test concentration not listed). 0.33% of 330,000 active;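 active = mean of two replicates above 20%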;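 note: 0% = compound-free wells with enzyme and 100% = wells lacking proteasome; stock transfer was 100 nL into about 20 µL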
Target sequence (Q9Y5K5 whole entry, looked up): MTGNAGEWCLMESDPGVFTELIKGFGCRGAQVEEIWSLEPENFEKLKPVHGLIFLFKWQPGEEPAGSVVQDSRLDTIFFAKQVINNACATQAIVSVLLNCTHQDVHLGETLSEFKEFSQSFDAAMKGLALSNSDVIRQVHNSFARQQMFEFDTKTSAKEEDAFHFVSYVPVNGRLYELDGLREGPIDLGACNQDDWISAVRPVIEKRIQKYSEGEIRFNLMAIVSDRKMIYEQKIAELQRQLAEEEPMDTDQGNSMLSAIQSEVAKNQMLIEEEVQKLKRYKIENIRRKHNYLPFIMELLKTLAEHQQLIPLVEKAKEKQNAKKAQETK
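Reagent: Ub-AMC substrate; assay system: Proteasome-associated human UCH37 deubiquitinase; controls: no-proteasome and no-compound wells; read-out: % inhibition of Ub-AMC cleavage fluorescence; timing: 30 min preincubation with enzyme, 25 min cleavage at room temperature; signal: AMC fluorescence from Ub-AMC cleavage, excitation 355 nm, emission 460 nm; buffer or medium: Tris-HCl pH 7.4 plus ovalbumin, ATP-MgCl2, DTT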
Starred values were filed as active, the others as inactive; i = inactive; / = no result given. Only part of the results is shown (hit frequency here may not be typical).

The first 2 records as a preview:
SMILES	Beta2AR agonist	ALR inh	FGF22 binding	LANA-H2B inh	HNF4A DNA FP	Ecoli growth	UCH37 inh
COc1ccccc1CC(=O)N(CCC1=CCCCC1)c1c(N)n(Cc2ccccc2)c(=O)[nH]c1=O	2.9	/	/	/	-0.8	0.701	4.1
CC(C)n1cnnc1SCC(=O)Nc1ccc(Br)cc1F	8.6	/	i	-6.5	-0.2	0.693	2.5

The listing, from the first entry:
SMILES	Beta2AR agonist	ALR inh	FGF22 binding	LANA-H2B inh	HNF4A DNA FP	Ecoli growth	UCH37 inh
COc1ccccc1CC(=O)N(CCC1=CCCCC1)c1c(N)n(Cc2ccccc2)c(=O)[nH]c1=O	2.9	/	/	/	-0.8	0.701	4.1
CC(C)n1cnnc1SCC(=O)Nc1ccc(Br)cc1F	8.6	/	i	-6.5	-0.2	0.693	2.5
CCOc1ccc(N2C(=O)c3cccnc3C2Nc2ccc(C)c(C)c2)cc1 (centres undefined)	-2.8	/	/	-4.3	5.5	0.751	3.0
CN(Cc1ccccc1)C1(CNC(=O)CCC(F)(F)F)Cc2ccccc2C1	7.3	-3.3	i	1.5	0.6	0.67	2.4
CCC1=Nc2cc(C(=O)NCCN3CCOCC3)ccc2Sc2ccc(Br)cc21	-4.5	0.7	i	2.3	1.0	0.659	-0.3
CCOc1ccc(S(=O)(=O)N(CC)CC)cc1N	1.9	2.7	i	-3.7	-1.3	0.65	-4.3
Cc1ccc(C)c(SCC(=O)OCC(=O)N2CC(C)OC(C)C2)c1 (centres undefined)	6.0	35.9	i	-0.7	-0.8	0.714	0.1
COc1ccc(NC(=O)c2cccc(C(=O)Nc3ccc(OC)cc3)n2)cc1	/	-6.1	/	-1.3	/	0.708	-18.8
COC(=O)c1nn(-c2ccc(OC)cc2)c(=O)cc1NN	-3.6	-44.3	i	-3.7	-0.1	0.712	15.3
O=C(NCc1ccncc1)c1cc(S(=O)(=O)N2CCOCC2)c(Cl)cc1Cl	-7.7	1.9	/	-0.4	3.1	0.63	0.7
Cc1cc(COc2ccccc2O)on1	4.3	-1.0	/	-0.3	-3.1	0.702	0.9
N=c1c(C(=O)NCC2CCCO2)cc2c(=O)n3ccccc3nc2n1Cc1ccc(F)cc1 (centres undefined)	-3.4	-3.0	i	-2.9	-1.9	0.679	i
N#CCCN1CCN(S(=O)(=O)c2ccc(S(=O)(=O)N3CCCC3)cc2)CC1	-2.9	/	i	-1.0	4.6	0.736	2.9
CCN(CC)c1ccc(C(=O)N/N=C(\C)c2ccc(OC)c(OC)c2)cc1	10.9	15.4	/	-3.0	1.2	/	/
Cc1noc(C)c1NC(=O)Nc1ccc2c(c1)C(=O)N([C@H](C)CO)C[C@H](C)[C@@H](CN(C)C(=O)NC1CCCCC1)O2	-5.3	-0.6	i	-3.5	1.8	/	0.9
COc1ccc(O)c(C(=O)c2cc(C#N)c(=O)n(CC3CCCO3)c2)c1 (centres undefined)	4.6	17.8	/	0.6	2.8	0.669	0.3
CCC(=O)N(Cc1cc2c(C)ccc(C)c2[nH]c1=O)C1CCCCC1	-1.6	-3.3	/	2.1	4.5	0.707	-4.2
CC1CCCN(CCCNC(=O)c2ccc(NC(=O)C3=CSCCO3)cc2)C1 (centres undefined)	21.2	-1.8	i	-1.0	0.2	0.71	4.9
COC(=O)[C@]1(C)N[C@H](CN(C)S(=O)(=O)c2ccc(-c3ccccc3)cc2)[C@@H]2C(=O)N(C)C(=O)[C@@H]21	-7.6	/	i	/	0.6	0.695	3.3
Cn1c(Cn2c(=O)sc3ccccc32)nnc1SCC(=O)N1CCOCC1	7.6	-13.3	i	0.5	3.3	0.667	0.7
CCN(CC(=O)Nc1ccc(NC(C)=O)cc1)C(=O)c1ccc2c(c1)S(=O)(=O)N=C1CCCCCN12	2.9	-9.1	i	-1.9	-0.1	0.677	4.5
CN(CC(=O)Nc1ccc(F)cc1)C(=O)COc1ccc([N+](=O)[O-])cc1Cl	-2.8	4.9	i	-1.9	6.5	0.608	2.1
CN(C)c1ccc(N2C(=NC(=O)CCc3ccccc3)SC3CS(=O)(=O)CC32)cc1 (centres undefined)	6.3	46.6	i	-0.6	0.5	0.68	-11.6
Cc1oc(-c2ccccc2F)nc1CS(=O)(=O)CC(=O)NCCCN1CCN(C)CC1	-3.0	-0.8	i	0.9	2.2	0.73	0.9
Cc1sc2c(c1C)c(=O)n(-c1ccccc1)c(=O)n2CC(=O)NCC1CCCO1 (centres undefined)	-1.9	-21.2	i	-1.3	-0.2	0.658	1.0

(continued)
SMILES	Beta2AR agonist	ALR inh	FGF22 binding	LANA-H2B inh	HNF4A DNA FP	Ecoli growth	UCH37 inh
C/C(=N\NC(=S)Nc1cccc(C)c1)c1ccccc1	-7.8	-0.9	/	0.8	0.3	/	/
NCCNC[C@@H]1COC2(CCCCCCCCCCC2)O1	33.8	1.9	i	8.4	5.1	/	/
CCCCc1c(C)nc2c(OC)cccc2c1SCC(=O)O	0.5	-9.6	i	0.8	-3.9	0.688	-17.1
O=C1NCCOC(=O)[C@H](Cc2ccc(F)cc2)CC/C=C/C[C@H]1CC(=O)N(CCO)Cc1ccccc1	-2.9	0.0	i	-0.1	-4.7	/	3.2
CCCSc1nnc(C(C)C)n1N	4.1	-4.8	/	1.5	5.1	0.741	4.2
COc1ccc(NC(=O)CCc2nnc3ccc(N4CCN(c5cccc(OC)c5)CC4)nn23)cc1	11.5	24.5	i	2.8	2.9	0.706	3.2
Cc1nnc(SCC(=O)Nn2cnnc2)s1	1.8	-18.4	/	3.3	-5.1	0.706	3.9
Cc1ccc(C(=O)OCC(=O)Nc2c(C)n(C)n(-c3ccccc3)c2=O)cc1[N+](=O)[O-]	-3.5	-6.6	i	-6.2	0.9	0.685	2.1
OC(c1nc2ccccc2[nH]1)C(O)c1nc2ccccc2[nH]1 (centres undefined)	5.7	-6.1	i	-4.7	-4.9	0.663	0.2
CC(C)Oc1ccc(C(=O)Nc2ccc(N3CCN(C(=O)c4ccco4)CC3)cc2)cc1	7.2	-3.0	i	5.6	-0.4	0.671	-2.2
CCNS(=O)(=O)c1ccc(CCC(=O)Nc2ccccc2)cc1	3.8	/	i	3.4	0.3	0.647	5.8
C=CCSc1nnc(-c2cccnc2)o1	11.8	-11.4	i	-0.9	-1.1	0.75	3.0
Cc1ccc2nc(C)cc(C(=O)OCC(=O)c3ccc(Cl)c([N+](=O)[O-])c3)c2c1	52.6*	-1.0	/	1.1	-0.6	0.711	5.0
O=C(Cc1cccs1)N/N=C/C(Br)=C/c1ccccc1	-1.7	-1.4	/	2.3	1.1	/	/
CN1C(=O)c2ccccc2C(C(=O)NCCCN2CCCC2=O)C1c1c[nH]c2ccccc12 (centres undefined)	/	-7.5	/	4.7	/	0.732	2.8
CCC(=O)Nc1nonc1-c1nc2ccccc2n1Cc1ccccc1	-9.8	-8.6	/	-2.2	1.8	0.715	-4.5
COc1ccc(N2CCN(CCCNC(=O)c3ccc(CS(=O)(=O)c4ccc(OC)cc4)o3)CC2)cc1	-1.3	19.0	i	1.9	2.1	0.62	-1.0
CCCCCn1c(=O)[nH]c2cc(C(=O)NC3CCN(Cc4ccccc4)CC3)ccc2c1=O	-8.2	/	i	-1.4	-0.9	0.682	-4.0
COC(=O)CSc1nc2ccc(C)cc2[nH]1	35.9	0.9	/	1.3	-1.1	0.724	1.7
CC(=O)N1CCN(C(=O)CNC(=O)c2cccs2)CC1	-0.9	/	i	0.4	-0.9	0.676	0.2
CC(=O)NC(c1cccs1)c1cc(Cl)c2ccccc2c1O (centres undefined)	21.3	40.8	i	-5.2	-0.7	0.672	-4.1
COc1cccc(CNC23CC4CC(CC(C4)C2)C3)c1OCc1ccccc1	18.6	11.0	i	3.2	2.2	0.627	2.2
O=c1[nH]c(C2CCN(S(=O)(=O)c3ccccc3)CC2)nc2c1nnn2Cc1ccccc1	-1.3	-56.3	i	1.3	5.2	0.699	-0.2
C=CCn1c(=O)c2c(nc3n2CC(C)CN3c2cccc(OC)c2)n(C)c1=O (centres undefined)	-22.1	3.4	i	-6.5	-0.2	0.731	5.8
COc1ccc(CNC(=O)CC2C[C@H](C(=O)N3CCOCC3)[C@@]3(C)c4[nH]c5ccccc5c4CCN3C2=O)cc1OC (some centres undefined)	12.7	3.3	i	-133.7	0.3	0.683	-1.4

New compounds follow:
SMILES	Beta2AR agonist	ALR inh	FGF22 binding	LANA-H2B inh	HNF4A DNA FP	Ecoli growth	UCH37 inh
CC(NC(=O)COc1ccc(/C=N/NC(=O)C(=O)Nc2ccccc2Br)cc1)c1ccccc1 (centres undefined)	7.1	-0.4	/	-0.7	-2.0	/	/
O=C(NCCS(=O)(=O)c1ccc(Br)cc1)c1ccc(Cl)cc1Cl	-9.5	-0.7	i	-4.8	-1.1	0.639	-0.7
O=C(CSc1nc2cc3ccccc3cc2[nH]1)Nc1ccc(F)cc1	-10.2	-5.0	/	4.4	0.1	0.731	-0.5
CCOC(=O)CNC(=O)C(NC(=O)C1CCC(C)CC1)C(C)CC (centres undefined)	9.8	-0.5	/	-0.2	4.7	0.664	1.7
COc1ccc(NC(=O)c2cc(-c3ccccc3)oc2C)cc1	4.4	60.2	/	2.8	-0.1	0.7	3.3
CCCCOc1ccccc1C1NC(=O)NC(C)=C1C(=O)OCCOC (centres undefined)	2.3	-3.0	i	-0.3	-1.0	0.697	5.3
O=C(C1CCN(S(=O)(=O)c2ccccc2)CC1)N1CCC1	-5.4	-0.8	i	1.8	1.8	0.696	2.7
Cc1nn(C)c(C(=O)NNC(=S)NCc2ccccc2)c1Cl	0.3	/	i	/	3.1	0.642	-0.2
COCCNC(=O)Cn1ccc2cc(S(=O)(=O)N3CCCCCC3)ccc21	-3.1	-4.8	i	4.5	-1.8	0.702	3.7
CCOc1ccc2nc(N3CCC(C(=O)NC4CCCCC4)CC3)sc2c1	3.1	/	i	1.2	2.2	0.757	3.5
COc1ccc(-n2cc(C(=O)c3cc(Cl)ccc3O)cc(C#N)c2=O)cc1	5.3	3.1	i	-5.2	8.3	0.652	-0.8
COc1ccc(N(CC(=O)N2CCCCCC2)S(=O)(=O)c2ccc(OC)c(OC)c2)cc1	4.0	-15.3	i	-2.2	-0.3	0.662	0.3
COc1ccc(-c2nc(C)c(C(C)=O)n2O)cc1	5.2	11.8	/	-1.4	-4.3	0.71	2.8
O=S(=O)(c1ccccc1Cl)N1CCCC1c1nc(-c2ccc(Cl)cc2)no1 (centres undefined)	-3.4	-1.0	/	0.2	-0.8	0.679	0.8
CC(O)(c1ccccc1)C(c1ccccc1)C1CCCCN1 (centres undefined)	0.3	-1.6	i	2.5	-4.1	0.671	-0.5
CC1CCC2(CC1)NC(=S)N(c1ccccc1)N2 (centres undefined)	1.7	93.4*	/	17.5*	2.6	0.669	4.8
CCCc1cc(C(=O)Nc2cccc3ccccc23)n(C)n1	-7.9	-2.1	i	-1.1	1.0	0.688	4.8
O=C(c1ccccc1)N(Cc1ccccc1)Cc1ccccc1	-3.1	/	i	-0.8	0.6	0.62	3.1
Cc1cc(NC(=O)CNCC(c2ccccc2)N(C)C)c([N+](=O)[O-])cc1C (centres undefined)	-11.2	-5.4	i	-3.5	-0.7	/	/
C=CCN(CC(=O)NCc1ccc(F)cc1)C(=O)c1csnn1	1.5	12.4	/	-1.0	-1.4	0.711	1.4
COc1ccccc1C(=O)NCC(c1cccs1)N1CCc2ccccc21 (centres undefined)	8.8	27.7	i	-1.0	-0.2	0.639	-0.6
Cc1ccc2c(c1)C1CN(C)CCC1N2C(=O)c1cccc(S(=O)(=O)N2CC(C)CC(C)C2)c1 (centres undefined)	8.4	-35.6	/	-2.2	-3.6	/	/
O=C(CCC(=O)N(CC(=O)NC1CCCC1)c1ccccc1F)Nc1nccs1	-4.4	/	i	-2.4	0.8	0.697	0.6
CC(=O)NC(Cc1c[nH]c2ccccc12)C(=O)N1CCc2ccccc2C1 (centres undefined)	-7.2	-3.0	/	2.9	2.4	0.741	2.1
CC(=O)N[C@@H](Cc1c[nH]c2ccccc12)C(=O)OCC(=O)Nc1ccc2c(c1)OCO2	6.0	/	i	/	1.0	0.685	4.3
O=C(NCc1ccco1)/C(=C/c1ccccc1)NC(=O)c1ccco1	9.8	/	i	-3.8	3.2	0.63	1.2
